Assay outcomes from PubChem BioAssay.
Arbovirus inh = antivirals against arbovirus infection | arbovirus infection cell-based antiviral screen | inhibition, % at 10 µM | 200,000 compounds, 0.37% hits;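 active = inhibition from about 30%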;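 also: bluetongue infection of BSR cells; cell survival read as ATP light after 72 h; 0% = infected wells without compound and 100% = uninfected wells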
YopH inh = inhibitors of Yersinia enterocolitica YopH tyrosine phosphatase. fluorescence Ex485/Em525. inhibition, %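 (about 10 µM by stock and volumes)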. 140,000 compounds, 0.16% hits. AID 898;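 active = inhibition of 50% or more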;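 also: controls were vehicle for no effect and minimum signal wells for full effect; inactives centre near -20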
RecA splice inh = inhibitors of M. tuberculosis RecA intein splicing; P9WHJ3; cell-free RecA intein splicing, fluorescence; inhibition, %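 (about 9 µM by stock and volumes)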; 290,000 compounds, 0.75% hits; AID 2221; in the data active = inhibition above about 30%; inconclusive = no clear call, values can overlap the other calls;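 also: 0% = vehicle wells and 100% = reference inhibitor control wells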
Target sequence (P9WHJ3 whole entry, looked up, canonical isoform): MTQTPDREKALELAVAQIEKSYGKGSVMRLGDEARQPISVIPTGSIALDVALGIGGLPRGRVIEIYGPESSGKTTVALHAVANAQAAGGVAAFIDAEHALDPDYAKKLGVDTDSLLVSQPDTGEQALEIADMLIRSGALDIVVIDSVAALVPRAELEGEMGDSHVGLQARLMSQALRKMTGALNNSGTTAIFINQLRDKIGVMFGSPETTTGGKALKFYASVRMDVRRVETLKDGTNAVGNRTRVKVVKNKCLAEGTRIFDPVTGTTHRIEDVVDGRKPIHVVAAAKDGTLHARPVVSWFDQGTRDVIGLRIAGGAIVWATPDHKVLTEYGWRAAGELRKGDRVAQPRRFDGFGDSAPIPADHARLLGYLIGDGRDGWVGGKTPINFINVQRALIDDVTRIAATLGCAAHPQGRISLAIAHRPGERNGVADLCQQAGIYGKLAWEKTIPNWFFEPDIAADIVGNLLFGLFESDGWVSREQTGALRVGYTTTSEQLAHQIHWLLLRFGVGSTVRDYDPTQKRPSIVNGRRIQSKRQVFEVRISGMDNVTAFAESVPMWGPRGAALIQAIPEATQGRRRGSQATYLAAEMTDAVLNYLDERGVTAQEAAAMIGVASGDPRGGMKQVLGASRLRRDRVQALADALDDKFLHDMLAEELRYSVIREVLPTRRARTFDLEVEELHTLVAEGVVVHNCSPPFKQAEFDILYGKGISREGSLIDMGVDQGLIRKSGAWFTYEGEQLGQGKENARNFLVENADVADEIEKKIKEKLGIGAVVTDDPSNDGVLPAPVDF
Mtb bLac sens = beta-lactam sensitization of Mtb H37Rv. M. tuberculosis H37Rv growth with meropenem, percent inhibition; hits of this screen are not shown here. inhibition, % at 25 µM. 330,000 compounds, 0.27% hits;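 active = about 74% or more and at least 40 points above the plate without the antibiotic, then above 30% in a dose series; inconclusive = first-round hits that could not be retested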;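 also: growth measured after seven days incubation then overnight dye step; 0% = bacteria only wells and 100% = bacteria with antibiotic; twin plates without the antibiotic show which effects depend on it; some results filed as inactive read as strong as hits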
Mtb H37Rv = M. tuberculosis H37Rv growth inhibitors, H37Rv strain (AID 1626). M. tuberculosis H37Rv growth inhibition; higher % means a stronger effect. one-dose inhibition, % at 10 µM; IC50 in µM for titrated hits. 220,000 compounds, 0.95% hits;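 active = confirmed in a dose series; inconclusive = inhibition above 80% but not taken into the dose series; inactive = below 80% or under 30% at every dose of the series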;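 also: bacteria incubated seven days before Alamar blue readout; 0% = bacteria only wells and 100% = bacteria with antibiotic wells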
Arbovirus inh repeat = recorded beside Arbovirus inh, whose call it bears; inhibition, %; measured here: 10K subset replicate screen; many hits read low in the repeat;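 first of two repeat runs on a subset; 0% = infected and 100% = uninfected wells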
Numbers without * were called inactive; ? = inconclusive; . = not tested or not shown. Only part of the results is shown, so the mix of outcomes need not match the whole.

SMILES	Arbovirus inh	YopH inh	RecA splice inh	Mtb bLac sens	Mtb H37Rv	others
COc1ccc(C(=O)CN2C(=O)NC(C)(c3ccc(C)cc3)C2=O)cc1OC (centres undefined)	3.7	5.5	1.5	-12.2	-1.4%
COCOc1cc(O)c(C(=O)/C=C/c2ccccc2)c(OCOC)c1	.	.	7.5	3.3	5.3%
Cc1ccc(CNc2oc(-c3cccs3)nc2C#N)cc1	-12.1	-19.4	8.9	4.9	7.0%
CCOc1ccc(CNC(=O)c2ccc3c(c2)N(CC)CCS3)cc1	.	.	-6.5	-2.0	.
Cc1cc(C)c(C(=O)COC(=O)c2ccc([N+](=O)[O-])o2)cc1C	-1.7	.	10.5	99.6	-2.8%
Cc1c(Cc2ccccc2)c(=O)oc2c(C)c(OC(C)C(=O)N[C@@H](Cc3ccccc3)C(=O)O)ccc12 (some centres undefined)	.	.	5.7	-7.9	.
COCC(=O)Nc1sc2c(c1C(=O)OC)CCC(C)C2 (centres undefined)	-1.7	-1.3	5.8	-5.1	-3.3%
COc1cccc(N2CCN(CC(=O)c3c[nH]c4ccc(OC)cc34)CC2C)c1 (centres undefined)	2.4	-33.0	-5.8	45.5	3.5%
CCCNS(=O)(=O)c1ccc(OCC(=O)N(C)Cc2ccccc2)cc1	.	.	-1.5	1.9	-11.7%
COc1ccc(NC(=S)N(CCCN2CCCCCC2)Cc2cccs2)cc1	0.8	.	0.9	0.7	6.0%
Cc1ccc2scc(CN3CCCC3)c2c1	.	.	-0.4	4.5	.
O=C(Nc1ccc(-c2nnc3n2CCCCC3)cc1)c1ccco1	5.3	-14.0	-3.3	0.2	-4.2%

The final 5 records of the part above are carried over, then new ones follow:
SMILES	Arbovirus inh	YopH inh	RecA splice inh	Mtb bLac sens	Mtb H37Rv	others
COc1cccc(N2CCN(CC(=O)c3c[nH]c4ccc(OC)cc34)CC2C)c1 (centres undefined)	2.4	-33.0	-5.8	45.5	3.5%
CCCNS(=O)(=O)c1ccc(OCC(=O)N(C)Cc2ccccc2)cc1	.	.	-1.5	1.9	-11.7%
COc1ccc(NC(=S)N(CCCN2CCCCCC2)Cc2cccs2)cc1	0.8	.	0.9	0.7	6.0%
Cc1ccc2scc(CN3CCCC3)c2c1	.	.	-0.4	4.5	.
O=C(Nc1ccc(-c2nnc3n2CCCCC3)cc1)c1ccco1	5.3	-14.0	-3.3	0.2	-4.2%
CCOc1cc(C(=O)NCc2nnc(SCC(=O)OC)n2C)cc(OCC)c1OCC	9.9	-43.3	-1.5	-3.2	.
COC(=O)c1ccc(COc2ccccc2/C=N/NC(=O)c2cccnc2)cc1	-17.7	.	-2.4	0.2	-7.2%
COc1cccc2c(Nc3ccccc3C)cc(C)nc12	.	.	1.4	7.6	.
COc1ccc(NC(=O)CCCn2cnc3ccccc3c2=O)cc1	.	.	4.6	-1.1	.
Cc1cc(=O)cc(C)n1-c1ccc(Br)cc1	1.9	.	-0.4	1.4	-4.8%
CCn1c(SCC(N)=O)nnc1-c1ccc(S(=O)(=O)N2CCN(C)CC2)cc1	-2.4	-16.3	2.9	6.2	-0.6%
O=C(COC(=O)CSc1cc(Cl)ccc1Cl)Nc1ncc(C(F)(F)F)cc1Cl	3.1	-23.4	0.7	-3.9	-6.1%
O=C(CSC1=NCCS1)Nc1nc2c(s1)CCCC2	14.2	-5.7	18.4	?	-1.4%
CC(NC(=S)Nc1c(Br)cccc1OC(F)F)C(C)(C)C (centres undefined)	10.2	-19.0	2.6	-2.6	4.2%
CC(Cc1cccs1)N(Cc1ccc(Cl)cc1)C(=O)c1ccncc1 (centres undefined)	.	.	18.6	1.7	.
O=C(Nc1ccc(SC(F)F)cc1)C1=COCCO1	-6.4	-6.9	-4.0	10.3	1.6%	Arbovirus inh repeat=4.1
CCCCCCNS(=O)(=O)c1ccc(Cl)s1	-12.1	-7.4	5.8	6.0	9.0%
Cc1ccc(/C=C/C(=O)O)cc1S(=O)(=O)Nc1ccc2c(c1)OCO2	9.4	.	-2.3	-0.5	-3.4%
O=C(Nc1ccnn1C1CCN(CC2CC=CCC2)CC1)c1ccccc1Cl (centres undefined)	.	.	3.2	6.0	.
CN1CCN(S(=O)(=O)c2ccc(Oc3cccc(C(F)(F)F)c3)nc2)CC1	.	.	0.7	-5.8	.
Cc1ccc(S(=O)(=O)NCC(=O)N/N=C/c2ccc(Cl)cc2)cc1	3.3	-14.6	1.6	1.1	-0.4%
Clc1ccc2nc3c4ccccc4cnn3c2c1	-10.4	.	3.4	6.3	1.1%
c1cc2c(cc1-c1csc(NNC3=NCCCCC3)n1)OCCO2	4.3	.	-1.6	2.4	2.5%
Cn1c(SCc2nc3cc(C(=O)O)ccc3c(=O)[nH]2)nnc1C(F)(F)F	3.1	.	-12.8	-2.4	1.0%
COCc1cc(C)nc(SCC(=O)Nc2ccc3[nH]c(=O)[nH]c3c2)c1C#N	.	.	0.2	8.1	.
O=CN1CCN(C(C(=O)NC2CCCCC2)c2ccc(Cl)cc2)CC1 (centres undefined)	.	.	-1.4	-5.9	.
COc1cccc(OCCn2cc(/C=N/NC(=O)c3ccncc3)c3ccccc32)c1	8.6	-12.6	0.1	99.2	?
Cc1ccc(NC(=S)c2nc3ccccc3[nH]2)cc1	-15.8	-40.8	16.0	-0.1	33.3%
CC(=O)N1CCC(N(CCN2CCOCC2)C(=S)Nc2cccc(C)c2)CC1	11.7	-6.0	1.9	-8.7	8.6%
COc1ccccc1N1CCN(Cc2cc3c(cc2[N+](=O)[O-])OCO3)CC1	.	.	-4.7	-5.7	.
CC(=O)Nc1ccc(Sc2ncccc2C(=O)Nc2ccc(OC(F)(F)F)cc2)cn1	4.5	-23.9	.	0.8	-12.1%
Cc1cccc(NCc2nc3ccccc3n2Cc2ccccc2)c1	-38.8	-16.6	19.3	-10.7	-2.4%
COC(=O)c1cc2c(ccn2-c2ccc(F)cc2)n1C(C)C	8.2	-13.2	.	74.3	5.4%
Cc1ccc(C(C(=O)NC(C)(C)C)N(C(=O)CCC(=O)Nc2ccccn2)c2ccccc2F)cc1 (centres undefined)	.	.	5.7	10.3	.
CCOc1cccc(CNc2ccc(O)cc2)c1OCc1ccc(Cl)cc1Cl	4.6	-5.6	17.5	83.2	.
O=C(Cc1ccc(-c2ccccc2)cc1)Nc1ccccn1	.	.	6.1	44.9	.
O=c1[nH]c2cc(Cl)c([N+](=O)[O-])nc2[nH]1	1.0	-12.8	-28.1	3.1	15.5%
CN(Cc1ccccc1)C(=O)c1nc2ccccn2c1CN1CCCC1c1nccs1 (centres undefined)	1.5	.	2.3	0.1	1.8%
CC(c1ccccc1)[n+]1ccccc1 (centres undefined)	.	.	-2.9	-3.1	.
Cn1nnnc1SCc1cc(=O)[nH]c2ccccc12	5.0	-41.0	-1.7	-6.2	-6.6%
Cc1ccc2[nH]c(C)c(CCNC(=O)c3cc4cc([N+](=O)[O-])ccc4oc3=O)c2c1	-3.3	4.8	2.3	99.1	74.8%

For convenience, some entries already given:
SMILES	Arbovirus inh	YopH inh	RecA splice inh	Mtb bLac sens	Mtb H37Rv	others
O=c1[nH]c2cc(Cl)c([N+](=O)[O-])nc2[nH]1	1.0	-12.8	-28.1	3.1	15.5%
CN(Cc1ccccc1)C(=O)c1nc2ccccn2c1CN1CCCC1c1nccs1 (centres undefined)	1.5	.	2.3	0.1	1.8%
CC(c1ccccc1)[n+]1ccccc1 (centres undefined)	.	.	-2.9	-3.1	.
Cn1nnnc1SCc1cc(=O)[nH]c2ccccc12	5.0	-41.0	-1.7	-6.2	-6.6%
Cc1ccc2[nH]c(C)c(CCNC(=O)c3cc4cc([N+](=O)[O-])ccc4oc3=O)c2c1	-3.3	4.8	2.3	99.1	74.8%

The listing continues:
SMILES	Arbovirus inh	YopH inh	RecA splice inh	Mtb bLac sens	Mtb H37Rv	others
CC(C)(C#N)Nn1cnnc1	0.8	-14.4	-1.4	-9.1	-8.0%
O=c1c2ccccc2c(-c2ccc(F)cc2)nn1-c1ccc(C(F)(F)F)cc1	0.4	-7.5	9.8	88.2	14.3%
COc1cc(CNc2ccc3c(c2)OCCO3)ccc1OCC(N)=O	-3.2	.	-5.7	2.9	-0.8%
COCCNC(=O)CSc1nc2c(n1-c1ccccc1)CCCC2	0.1	0.0	1.9	5.5	-3.3%
O=C(CNC(=O)C1CCCCC1)NNC(=O)c1ccccc1Br	.	.	-1.7	3.8	.
Cc1ccc(-n2c(C)cc(/C=N/NC(=O)CC3(C)OCCO3)c2C)c(C)c1	6.1	-0.7	7.1	5.8	1.9%
O=C(CN1C(=O)c2ccccc2C1=O)OCCOCCN=C1NS(=O)(=O)c2ccccc21	0.7	.	3.3	-2.0	-2.1%
CCOC(=O)CC(N)c1ccc(OC)cc1 (centres undefined)	6.9	-84.2	-4.7	-2.1	-9.3%
CCOC(=O)N1CCN(CCCc2ccccc2)CC1	.	.	0.2	1.5	.
CC1CCN(S(=O)(=O)c2ccc(C(=O)OC(C)C(=O)N(C)C3CCCCC3)cc2)CC1 (centres undefined)	.	.	1.8	-3.3	.
COC(=O)COc1ccc2c(=O)c(-c3ccccc3OC)coc2c1	3.1	.	0.1	-9.9	3.01µM*
Cc1cc(C)n(-c2cc(N3CCN(S(=O)(=O)c4ccc(C)c(C)c4)CC3)ccc2[N+](=O)[O-])n1	5.6	-37.8	-3.3	0.5	-5.7%
Cc1ccc(C(=O)NCc2ccccn2)cc1Cl	-13.4	.	-0.7	-1.4	-12.9%
Cc1ccccc1S(=O)(=O)Cc1ccc(C(=O)NCCN2CCN(Cc3ccccc3)CC2)o1	1.6	-28.6	-0.2	-13.2	3.3%
Clc1ccc(-c2nc(NCCCN3CCOCC3)c3ccccc3n2)cc1	.	.	2.8	3.4	72.7%
CCCN1CCN(CCCNC(=O)CCN2C(=O)COc3ccccc32)CC1	.	.	-0.2	1.9	.
COc1ccc(C2CC(c3ccccc3)=NN2C(=O)c2ccc(Cl)c([N+](=O)[O-])c2)cc1 (centres undefined)	-6.4	-23.2	5.8	12.6	27.4%
COc1ccc(C2NCCO2)cc1OC (centres undefined)	9.6	-38.6	1.1	-11.2	1.7%
CCSc1nsc(NC(=O)Nc2cccc(OC)c2)n1	.	.	4.2	2.8	.
O=[N+]([O-])c1ccc(N2CCOCC2)cn1	-6.3	.	.	-7.8	1.0%
O=C(N/N=C/c1ccc2c(c1)OCO2)c1cc2ccccc2o1	.	.	-3.6	-0.5	-7.5%
Cn1cc(/C=C/c2cc[n+](C)cc2)c2cc(Cl)ccc21	.	.	-9.5	99.3	.
CCC(C)[C@H]1CNC(=S)N1CCc1cccc2ccccc12 (some centres undefined)	.	.	8.5	2.2	6.9%
O=C(CCn1cnc2ccccc2c1=O)Nc1ccc(Cl)c(Cl)c1	6.5	-22.5	-1.0	-1.5	5.1%
CC(C)(C)NC(=O)C(c1ccc(F)cc1)N(Cc1ccco1)C(=O)c1csnn1 (centres undefined)	0.6	-20.0	-0.6	-5.1	-1.8%
CC(NC(=O)c1ccccc1)c1nnc(SCC(=O)Nc2nnc(C3CC3)s2)n1C (centres undefined)	.	.	-1.5	-4.2	.
CCCN(C(=O)CCl)C1=CCCCC1	0.1	.	-2.9	89.7	19.0%
